eIF4H FP inh = human eIF4H binding inhibitors, primary screen, translation initiation inhibitor project, biochemical, uHTS, fluorescence polarization; eIF4H fluorescence polarization binding assay; AID 2012, 2009; inhibition, % at 35 µM; Eukaryotic translation initiation factor 4H (Homo sapiens), Q15056; 0.94% of 290,000 active;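 active = 50% or more with normal probe brightness, or confirmed in later tests; inconclusive = above 50% with abnormal brightness, or retests that disagree; inactive = below 50% or failed in later tests; about a fifth of its hits are not listed in these tables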;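 note: calls also rest on retests at 20 µM and on dose response follow-up; 0% = protein and probe with vehicle and 100% = probe without protein; strong numbers were not always called active; many hits fall short of the cut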
MT1-MMP act inh = blockers of MT1-MMP proenzyme processing, primary screen, HT1080 RFP-PRO-GFP cells, GFP/RFP fluorescence | 0.061% of 360,000 active | GFP/RFP ratio fluorescence, overnight; percent of plate control window, DMSO zero | GFP/RFP ratio change, % at 20 µM;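 active = GFP/RFP ratio change of at least 30% with cell ATP level not reduced by more than half and red fluorescence within 50% of control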; note: strong numbers were not always called active
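Read-out: GFP/RFP fluorescence ratio; Test system: RFP-PRO-GFP reporter HT1080 cells; Compound dosing: single-point 20 µM compound, 1% DMSO; Times: overnight compound exposure at 37 °C.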
PABP FP inh = PABP poly(A) RNA binding inhibitors, primary screen, biochemical, fluorescence polarization, uHTS; 1% of 290,000 active; AID 2014, 2009; Polyadenylate-binding protein 1 (Homo sapiens), P11940; inhibition, % at 35 µM;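 active = 50% or more with normal probe brightness, or confirmed in later tests; inconclusive = above 50% with abnormal brightness, or retests that disagree; inactive = below 50% or failed in later tests; about a fifth of its hits are not listed in these tables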;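 note: calls also rest on retests at 20 µM and on dose response follow-up; controls were probe without protein and protein plus probe with vehicle; some compounds called inactive have numbers as strong as hits; many hits fall short of the cut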
Target sequence (P11940 whole entry, looked up): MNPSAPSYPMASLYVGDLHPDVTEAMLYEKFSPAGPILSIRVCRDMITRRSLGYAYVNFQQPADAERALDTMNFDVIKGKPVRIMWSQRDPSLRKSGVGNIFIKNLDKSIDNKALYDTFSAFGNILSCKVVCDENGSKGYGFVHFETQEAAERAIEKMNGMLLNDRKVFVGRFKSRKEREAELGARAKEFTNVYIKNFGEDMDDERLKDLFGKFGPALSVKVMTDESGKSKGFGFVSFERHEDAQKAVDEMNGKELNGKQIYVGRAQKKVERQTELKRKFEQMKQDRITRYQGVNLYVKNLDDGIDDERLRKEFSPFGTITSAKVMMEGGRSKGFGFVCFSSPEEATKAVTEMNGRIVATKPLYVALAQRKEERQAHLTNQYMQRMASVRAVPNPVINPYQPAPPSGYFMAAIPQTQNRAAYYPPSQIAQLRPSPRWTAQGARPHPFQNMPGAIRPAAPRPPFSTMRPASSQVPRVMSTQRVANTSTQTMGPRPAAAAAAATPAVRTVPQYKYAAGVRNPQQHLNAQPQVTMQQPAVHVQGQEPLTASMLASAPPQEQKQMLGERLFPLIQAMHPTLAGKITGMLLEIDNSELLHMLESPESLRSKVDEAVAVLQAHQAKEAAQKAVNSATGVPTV
Rce1 inhib = yeast Rce1p protease inhibitors, primary screen, biochemical, fluorescence, cell-free homogeneous. yeast membranes, quenched prenylated peptide cleavage fluorescence. calls only. 0.27% of 290,000 active. AID 2563, 2010;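 active = fall in fluorescence gain of 50% or more versus controls, with final raw signal at or below 3038400; inconclusive = same 50% fall but final raw signal above 3038400; inactive = fall in fluorescence gain under 50%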;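 note: plate controls were neutral control wells for no effect and wells lacking membranes for full effect; tested at 10 µM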
Target sequence (Q03530 whole entry, looked up): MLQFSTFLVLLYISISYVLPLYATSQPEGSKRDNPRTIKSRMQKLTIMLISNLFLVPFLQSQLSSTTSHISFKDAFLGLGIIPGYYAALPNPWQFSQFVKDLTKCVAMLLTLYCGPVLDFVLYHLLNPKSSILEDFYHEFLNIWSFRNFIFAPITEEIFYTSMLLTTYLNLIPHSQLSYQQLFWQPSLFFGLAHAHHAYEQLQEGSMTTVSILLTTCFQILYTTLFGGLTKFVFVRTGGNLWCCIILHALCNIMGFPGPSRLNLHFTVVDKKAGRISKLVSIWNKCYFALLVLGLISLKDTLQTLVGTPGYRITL
Yeast UUG start = modulators of yeast start codon fidelity, primary screen, whole organism, S. cerevisiae, single point, plate reader; S. cerevisiae UUG-firefly luciferase reporter, luminescence/redox ratio; activity score, % at 18.7 µM; 0.13% of 350,000 active; AID 602363, 2012;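 active = replicate mean at a twofold rise or more, about +100% in these data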;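 note: firefly luciferase made from a UUG start codon reports start codon fidelity; reporter light over untreated wells divided by growth signal over untreated wells; some hits fall short of that in this replicate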
HIV Env fusion = inhibitors of HIV-1 Env-driven cell-cell fusion, primary screen, HeLa-JRFL effector, CEM21 target cells, luciferase. inhibition, % at 12.3 µM. 1.1% of 360,000 active;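 active = mean replicate inhibition score of at least 50 and every replicate individually at or above 50; inconclusive = only one of the two criteria met; inactive = mean below 50 and not all replicates reaching 50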;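 note: 0% = plate neutral controls and 100% = maraviroc near 300 nM; one replicate is shown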
CSC inhib = cancer stem cell viability inhibitors, primary screen, luminescence; 1.1% of 300,000 active; AID 2717, 2010; inhibition, % at 7.5 µM; cancer stem cell-like cells viability;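 active = mean at 75% or more and at least half the replicates too; inconclusive = mean and replicates disagree; tested in HMLE shEcad cells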;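 note: 0% = median of negative and 100% = median of positive control wells; the first replicate is given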
MT1-MMP act inh RFP = second read-out of MT1-MMP act inh, no call of its own (marks repeat the call); RFP signal change, %; measured here: RFP expression control read;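 0 = vehicle wells; hits needed this value within 50% of zero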
* = called active by the depositor; i = inactive; ? = inconclusive; · = no result given; [ ] = remark or other dose. Rows are unselected. About 2.9% of those tested had a hit in this group.

structure,eIF4H FP inh,MT1-MMP act inh,MT1-MMP act inh RFP,PABP FP inh,Rce1 inhib,Yeast UUG start,HIV Env fusion,CSC inhib
N#CNC(=Nc1cccc(F)c1)SCc1cccc(F)c1,4,1,-11,10,i,·,-29,26
COC(=O)c1ccc(OCC(O)CN2CCN(CC(O)COc3ccc(C(=O)OC)cc3)CC2)cc1 (stereo not given),-2,3,-4,8,i,-5,0,5
O=C(COc1ccc(S(=O)(=O)N2CCCC2)cc1)Nc1ccc(F)cc1,8,5,0,4,i,-4,5,-43
COC(=O)c1[nH]nc2c1C(=O)N(C1CCCCC1)C2=O,-16,2,3,-5,i,-22,·,11
COc1cc(C(=O)Oc2cccc(C=O)c2)cc(OC)c1OC,-12,8,1,-4,i,3,·,-5
CC1CC(C)CN(CCCNC(=O)COc2cc(=O)n(C)c3ccccc23)C1 (stereo not given),2,3,1,10,i,-5,-35,-5
COc1ccc(/C=N/N=C2/NC(=O)C(c3ccccc3)S2)c(OC)c1 (stereo not given),-3,3,-2,23,i,-6,16,-3
O=C(NCC1CCN(Cc2ccccc2F)CC1)Nc1ccccc1F,0,3,2,-11,i,-10,-20,-2
Cc1ccc(NC(=O)c2cccc(S(=O)(=O)N3CCCC3)c2)nc1,·,1,-1,·,i,-2,-7,-12
CC(C)c1ccc(OCC(=O)NC2CC(C)(C)NC(C)(C)C2)c(Br)c1,-10,1,1,-8,i,1,6,1
COc1ccc(CC(=O)NCC2CCCN(Cc3ccc(OC(F)(F)F)cc3)C2)cc1 (stereo not given),6,-1,-7,1,i,-9,21,2
O=C(CSc1nnc(C2CC2)n1CC1CCCO1)Nc1cccc(Cl)c1 (stereo not given),-2,5,0,9,i,-2,-4,-5
Cn1cnnc1SCC(=O)c1ccco1,-6,1,-1,4,i,-8,·,-3
CCOC(=O)c1c(C)[nH]c(C(=O)NCc2ccco2)c1C,-8,·,·,-2,i,·,·,-5
Cc1cc(C(=O)Nc2cc(C)n(Cc3ccc(Cl)cc3)n2)no1,1,-2,-13,-8,i,21,33,7
CCOc1cc2[nH]c(=S)n(C(C)C)c(=O)c2cc1OCC,4,-1,-4,-4,i,-11,-6,5
COc1cccc(/C=N/NC(=O)C(=O)N2CCCC2)c1OC,-8,1,3,6,i,-15,·,-4
Cc1ccc2nsnc2c1S(=O)(=O)Nc1ccccc1C(=O)O,8,2,0,4,i,·,-13,4
COCCN1C(=O)c2ccccc2C(C(=O)NCC2CCCO2)C1c1c[nH]c2ccccc12 (stereo not given),6,-1,1,10,i,11,·,-1
O=S(=O)(c1cc(Cl)ccc1Br)N1CCOCC1,-8,3,1,-7,i,-3,·,-1
COCCCC1CCN(Cc2nc(Cc3ccccc3Cl)no2)CC1,13,1,5,-14,i,·,-11,-6
CCC/C=N/Nc1nc2ccccc2s1,-11,-1,0,-6,i,·,-10,-7
COc1ccc(-c2nnn(CC(=O)c3c[nH]c4ccccc34)n2)cc1OC,-8,6,-4,-2,i,0,·,4
CN(C)N1C(=O)CC(C)(c2ccc([N+](=O)[O-])cc2)C1=O (stereo not given),·,2,6,·,i,4,-4,-3
N#Cc1ccc(N2Cc3ccccc3C2=NC(=O)c2cccs2)cc1,-5,-8,-3,-10,i,·,-4,-7
Cc1ccc(-c2nnc(Sc3nc4ccccc4o3)c3ccccc23)cc1,2,5,-1,6,i,-19,-203,?
COc1ccc(-c2cc(-c3ccc(C)cc3)n[nH]2)c(O)c1,3,2,-4,-6,i,-11,-94,10
Cc1cc(C)c(S(=O)(=O)N2CCCOC2CNC(=O)C(=O)NCCc2c[nH]c3ccccc23)c(C)c1 (stereo not given),3,-2,-15,-1,i,·,14,-28
CC1CCCC(NC(=O)Cn2cc3c(n2)CCCCC3)C1C (stereo not given),8,8,-2,-8,i,-14,10,9
O=C(CCS(=O)(=O)c1ccc(Cl)cc1)NC1CCCC1,·,0,-2,·,·,-38,·,-7
COc1ccc(-c2nc(N)n(C(=O)c3ccco3)n2)cc1,-3,-2,3,3,i,10,-23,-4
CSCc1ccc(C(=O)N2CCC(N3CCC(C(=O)NC(C)C)CC3)CC2)o1,-1,-2,1,-11,i,-12,·,1
CN1CCN(NC(=O)/C=C/c2ccc(Br)cc2)CC1,-5,3,-2,-13,i,2,-8,-2
c1ccc2cc(OCCOCCOc3ccc4ccccc4c3)ccc2c1,8,-1,1,-3,i,-18,13,22
COc1ccc(Cl)cc1-c1cc(C(=O)NCC2CCCCC2)[nH]n1,·,-1,-12,·,·,-35,-2,·
CC(C)(C)c1ccc(C(=O)Nc2cccc3ncccc23)cc1,?,-19,-9,?,·,-22,11,-2
CC(=O)Nc1ccc(S(=O)(=O)N2CCN(CCCOc3cc(C)ccc3C)CC2)cc1,-2,0,-13,31,i,-4,31,5
Cc1ccc([N+](=O)[O-])cc1N=C(c1cccc([N+](=O)[O-])c1)N1CCOCC1,-2,-4,1,-13,i,-11,-52,-1
Cc1nnc(SCC(=O)NC2CCCC2)n1C(C)C,-9,4,4,-4,i,-12,1,-4
C=CCn1c(SCC(=O)NC)nc2sc3c(c2c1=O)CCC3,13,8,3,12,i,-12,10,3
COc1cc(OC)cc(C(=O)N2CCN(Cc3ccccc3[N+](=O)[O-])CC2)c1,4,1,0,18,·,·,-6,-19
COc1ccc(NC(=O)CCC(=O)c2ccc(F)cc2)cc1,·,0,-3,·,·,-10,0,·
CC/C(=N\O)c1ccc(O)c(OC)c1,11,0,3,-5,i,-8,·,-16
Cc1oc(-c2cccc(Cl)c2)nc1CS(=O)(=O)CC(=O)NCCN1CCCC1,-3,2,2,-2,i,5,5,-4
COc1cc2c(cc1OC)CN(C(=O)c1cccs1)CC2,-6,2,4,-2,i,3,·,-5
CCCCCC(=O)N1C[C@@H](n2cc(C3CC3)nn2)[C@H](O)C[C@@H]1c1ccccc1,·,0,7,·,·,-1,-88,·
CCOc1ccccc1CN1CCN(C2CCN(c3ccccc3F)CC2)CC1CCO (stereo not given),-9,0,1,-2,i,·,-20,8
COc1ccc(CN2CCn3nc(C(=O)NC(C)C)cc3C2=O)cc1,6,2,1,7,i,·,1,1
COc1ccc(N2C(=O)CC3(CCCC3)CC2=O)cc1,-10,2,2,-15,i,·,-45,·
Cc1ccc2cc(/C=C/C(=O)c3ccco3)c(Cl)nc2c1,5,-1,-9,12,i,-22,-163,20

Further structures
structure,eIF4H FP inh,MT1-MMP act inh,MT1-MMP act inh RFP,PABP FP inh,Rce1 inhib,Yeast UUG start,HIV Env fusion,CSC inhib
O=C(CCc1nnc(Cc2ccc3c(c2)OCO3)o1)NCc1nc2ccccc2s1,-3,·,·,-4,i,·,-6,·
CC(=O)Nc1nnc(SCc2ccccc2F)s1,-8,0,2,-5,i,·,-43,-7
O=S(=O)(Nc1ccc2cn[nH]c2c1)c1ccc(C(F)(F)F)cc1,·,3,-5,·,·,11,4,·
COc1cc(C(C(=O)NC2CCCCC2)N(C(=O)c2snc(C(N)=O)c2N)c2ccc(C)cc2)ccc1O (stereo not given),-8,-6,-4,-3,·,-12,7,-5
Cc1nc2cc(CO)ccc2n1C,-1,0,-2,-15,i,6,-9,-4
O=C(OCC(=O)N1CCC(c2ccccc2)=N1)c1ccc([N+](=O)[O-])s1,·,1,2,·,i,-9,22,-9
Cc1coc2cc3oc(=O)c(CCC(=O)NCCCN4CCCC4=O)c(C)c3cc12,-1,-2,-1,1,·,13,·,-9
CC(C)N1C(=O)c2ccccc2C1C(=O)NC1CCCCCC1 (stereo not given),2,3,1,-3,i,·,-63,-2
COc1ccc(C(c2nnnn2Cc2ccccc2)N2CCN(c3ccccc3)CC2)cc1 (stereo not given),5,-10,-12,12,i,0,·,-4
Cc1occc1-c1nnc(SCC(=O)Nc2ccccc2)n1CCc1ccccc1,-18,-9,1,7,i,-4,-22,25
O=C(NN1CCOCC1)c1ccc(Cl)s1,-7,-1,2,-1,i,·,7,2
CC(C)(O)C(=O)NN(Cc1ccccc1)c1ccccc1,3,-7,1,-1,i,·,-33,-3
CCn1c(SCC(=O)NC2CCCCC2)nnc1-c1cccs1,4,-3,2,-4,i,-10,·,2
C[C@H]1CN([C@@H](C)CO)C(=O)CCCn2cc(nn2)CO[C@@H]1CN(C)C(=O)Nc1ccccc1C(F)(F)F,·,-2,6,·,·,-4,-12[16.7 µM],·
Cc1nc(NCc2ccccc2)c2cc[nH]c2n1,2,4,0,5,i,·,17,-8
Cc1onc(-c2ccccc2)c1CNC(=O)CN1C(=O)c2ccccc2C1=O,12,0,1,6,i,·,-9,-9
CCOC(=O)C1CCN(C2CCN(Cc3nc(-c4ccccc4)no3)CC2)CC1,-2,6,-1,2,·,-10,9,15
CCCS(=O)(=O)N1CCC(C(=O)N2CCN(C(=O)OCC)CC2)CC1,4,-1,1,6,·,-3,·,-11
Cc1ccc(C(C(=O)Nc2ccc(C(C)C)cc2)N(C)C(=O)c2ccc(=O)[nH]c2)cc1 (stereo not given),25,1,2,11,i,·,-7,-1
CCOc1ccc(N2CC(C(=O)NCc3ccc(C)n3C)CC2=O)cc1 (stereo not given),19,-1,3,-2,i,·,-13,-16
CCSc1nc(O)c(C2OC(=O)c3c2ccc(OC)c3OC)c(=O)n1CC (stereo not given),2,0,1,12,i,1,·,9
Cc1cc(C)n(-c2nc3c(c(=O)[nH]c(=O)n3C)n2CC(O)c2ccccc2)n1 (stereo not given),1,-5,1,4,i,-14,·,1
COc1ccc2oc(C(=O)Nc3nccs3)c(C)c2c1,·,-1,4,·,i,·,-190,2
O=S(=O)(c1ccccc1)N1CCN(Cc2ccccc2C(F)(F)F)CC1,-2,-4,-2,26,·,-9,-59,-5
Cc1cc(C)c2nc(NC(=O)c3ccc([N+](=O)[O-])o3)sc2c1,8,-1,-8,-1,i,-17,-2,-11
Cc1ccc(Cl)c2sc(NC(=O)C3=COCCO3)nc12,-5,-4,1,-4,i,-19,-39,25
O=C(NCCCNC(=O)c1ccccc1Br)c1ccccc1Br,-2,-2,2,-2,i,-15,-2,5
COc1ccccc1-c1nnc(NC(=O)c2cccc(N3C(=O)CCC3=O)c2)o1,1,0,7,-10,i,·,-3,-8
CCc1ccc(C(=O)CCC(=O)Nc2ccc(OC)c(S(=O)(=O)N3CCCCC3)c2)cc1,·,3,-11,·,·,-10,-1,27
COc1ccc(NC(=O)c2ccc(NCCCN3CCOCC3)c([N+](=O)[O-])c2)cc1,-18,8,-1,22,i,·,·,-3

Full records from above.
Results for COc1ccc(NC(=O)c2ccc(NCCCN3CCOCC3)c([N+](=O)[O-])c2)cc1 : eIF4H FP inh: -18; MT1-MMP act inh: 8; MT1-MMP act inh RFP: -1; PABP FP inh: 22; Rce1 inhib: i; Yeast UUG start: ·; HIV Env fusion: ·; CSC inhib: -3
Results for O=C(NCCCNC(=O)c1ccccc1Br)c1ccccc1Br : eIF4H FP inh: -2; MT1-MMP act inh: -2; MT1-MMP act inh RFP: 2; PABP FP inh: -2; Rce1 inhib: i; Yeast UUG start: -15; HIV Env fusion: -2; CSC inhib: 5

Source: PubChem BioAssay
